# High-throughput results deposited in PubChem by Broad Institute.
# A1 apoptosis 2: blocks A1, raising caspase activity | MEF A1-2A-BIM cells, caspase-Glo luminescence, 3 h; percent of clofoctol response, DMSO zero | caspase activation, % (no concentration beside the values) | 24,000 tested, under 10 active | AID 2465; in the data active means caspase activation above about 5.9%; inconclusive means no clear call, values can overlap the other calls; inactive means below about 2.2%;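 further: wells of about 30 µL received 50 nL stock; the first replicate is given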
#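 system = A1-2A-BIM-expressing MEF cells | quantity = 2500 MEF cells/well | dosing = 50 nL compound per well, pinned | schedule = overnight cell settling, then 3 h compound exposure, 37 °C | signal = luminescence from DEVD-luciferin Caspase-Glo reagent, 1:1 in 50 mM HEPES, 1 h RT | read-out = Caspase-3/7 activation, seen as rise in luminescence signal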
# Numbers without * were called inactive; u = inconclusive.
SMILES	A1 apoptosis 2
CC(C)NC(=O)N(C)C[C@H]1Oc2ccc(NC(=O)CCN3CCOCC3)cc2CC(=O)N([C@@H](C)CO)C[C@@H]1C	-0.1
C[C@@H]1CCCCO[C@@H](CN(C)C(=O)NC2CCCCC2)[C@@H](C)CN([C@H](C)CO)C(=O)c2cc(NC(=O)Nc3ccc(C(F)(F)F)cc3)ccc2O1	1.2
COc1ccc(CN(C)C[C@H]2Oc3ccc(NC(=O)Nc4cccc5ccccc45)cc3CC(=O)N([C@@H](C)CO)C[C@@H]2C)cc1	-0.7
C[C@@H]1CN([C@@H](C)CO)C(=O)Cc2cc(NC(=O)Cc3ccccc3)ccc2O[C@@H]1CN(C)CC1CC1	0.9
Cc1ccc(S(=O)(=O)Nc2ccc3c(c2)CC(=O)N([C@@H](C)CO)C[C@@H](C)[C@H](CN(C)C)O3)cc1	-0.9
C[C@H]1CN([C@@H](C)CO)C(=O)c2cc(NC(=O)Nc3ccc4c(c3)OCO4)ccc2O[C@H]1CN(C)S(=O)(=O)c1ccccc1	0.4
COc1ccc(NC(=O)Nc2ccc3c(c2)C(=O)N([C@H](C)CO)C[C@H](C)[C@@H](CN(C)S(=O)(=O)c2c(C)noc2C)OCCCC[C@@H](C)O3)cc1	0.2
C[C@H](CO)N1C[C@H](C)[C@H](CN(C)C(=O)Nc2ccc(C(F)(F)F)cc2)OCCCC[C@H](C)Oc2ccc(NS(=O)(=O)c3ccc(F)cc3)cc2C1=O	-1.6
C[C@@H]1CCCCO[C@H](CN(C)Cc2ccc3c(c2)OCO3)[C@@H](C)CN([C@H](C)CO)C(=O)c2cc(NC(=O)CCCN(C)C)ccc2O1	0.1
C[C@@H]1CCCCO[C@@H](CN(C)S(C)(=O)=O)[C@H](C)CN([C@@H](C)CO)C(=O)c2cc(N(C)C)ccc2O1	0.6
C[C@@H]1CN([C@@H](C)CO)C(=O)Cc2cc(NC(=O)Cc3ccccc3)ccc2O[C@@H]1CN(C)Cc1ccc(C(=O)Nc2ccccc2N)cc1	-0.3
COc1ccc(S(=O)(=O)N(C)C[C@@H]2Oc3ccc(NC(=O)Nc4ccccc4)cc3CC(=O)N([C@H](C)CO)C[C@H]2C)cc1	-1.1
C[C@H]1CN([C@@H](C)CO)C(=O)CCCn2cc(nn2)CO[C@H]1CN(C)S(=O)(=O)c1ccc(C#N)cc1	-0.1
C[C@H]1CN([C@@H](C)CO)C(=O)Cc2cc(NC(=O)NC3CCCCC3)ccc2O[C@@H]1CN(C)C(=O)Nc1ccc(C(F)(F)F)cc1	-1.5
C[C@@H]1CCCCO[C@@H](CN(C)S(=O)(=O)c2cn(C)cn2)[C@@H](C)CN([C@H](C)CO)C(=O)c2cc(NC(=O)NC3CCCCC3)ccc2O1	-1.0
COc1ccc(NC(=O)N(C)C[C@@H]2Oc3ccc(NC(=O)CCCN(C)C)cc3C(=O)N([C@@H](C)CO)C[C@@H]2C)cc1	-0.6
C[C@@H]1CN([C@H](C)CO)C(=O)c2cc(NS(=O)(=O)c3cccs3)ccc2O[C@H]1CN(C)C(=O)Nc1ccc(F)cc1	-0.9
CNC[C@@H]1Oc2c(NC(=O)c3cc(C)nn3C)cccc2C(=O)N([C@H](C)CO)C[C@@H]1C	0.0
C[C@@H]1CN([C@@H](C)CO)C(=O)c2cc(N(C)C)ccc2O[C@@H](C)CCCCO[C@H]1CN(C)S(=O)(=O)c1cn(C)cn1	0.6
C[C@@H]1CN([C@@H](C)CO)C(=O)c2cccc(NS(=O)(=O)c3ccc(Cl)cc3)c2O[C@@H]1CN(C)C(=O)Nc1ccc(F)cc1	1.1

# The final 7 compounds of the section before come first, to join the parts:
SMILES	A1 apoptosis 2
C[C@H]1CN([C@@H](C)CO)C(=O)Cc2cc(NC(=O)NC3CCCCC3)ccc2O[C@@H]1CN(C)C(=O)Nc1ccc(C(F)(F)F)cc1	-1.5
C[C@@H]1CCCCO[C@@H](CN(C)S(=O)(=O)c2cn(C)cn2)[C@@H](C)CN([C@H](C)CO)C(=O)c2cc(NC(=O)NC3CCCCC3)ccc2O1	-1.0
COc1ccc(NC(=O)N(C)C[C@@H]2Oc3ccc(NC(=O)CCCN(C)C)cc3C(=O)N([C@@H](C)CO)C[C@@H]2C)cc1	-0.6
C[C@@H]1CN([C@H](C)CO)C(=O)c2cc(NS(=O)(=O)c3cccs3)ccc2O[C@H]1CN(C)C(=O)Nc1ccc(F)cc1	-0.9
CNC[C@@H]1Oc2c(NC(=O)c3cc(C)nn3C)cccc2C(=O)N([C@H](C)CO)C[C@@H]1C	0.0
C[C@@H]1CN([C@@H](C)CO)C(=O)c2cc(N(C)C)ccc2O[C@@H](C)CCCCO[C@H]1CN(C)S(=O)(=O)c1cn(C)cn1	0.6
C[C@@H]1CN([C@@H](C)CO)C(=O)c2cccc(NS(=O)(=O)c3ccc(Cl)cc3)c2O[C@@H]1CN(C)C(=O)Nc1ccc(F)cc1	1.1
Cc1noc(C)c1S(=O)(=O)N(C)C[C@H]1Oc2ccc(NC(=O)Nc3ccccc3)cc2CC(=O)N([C@H](C)CO)C[C@H]1C	-0.1
CCOC(=O)N(C)C[C@H]1OCc2cnnn2CCCC(=O)N([C@H](C)CO)C[C@@H]1C	-0.6
Cc1ccc(S(=O)(=O)N(C)C[C@H]2Oc3ccc(NC(=O)Cc4ccccc4)cc3CC(=O)N([C@H](C)CO)C[C@H]2C)cc1	0.7
COc1ccc(S(=O)(=O)N(C)C[C@H]2OCCCC[C@H](C)Oc3ccc(NC(=O)Nc4ccc5c(c4)OCO5)cc3C(=O)N([C@H](C)CO)C[C@H]2C)cc1	0.7
COc1ccc(CN(C)C[C@@H]2Oc3ccc(NC(=O)C4CCCCC4)cc3CC(=O)N([C@@H](C)CO)C[C@H]2C)cc1	0.9
Cc1noc(C)c1NC(=O)N(C)C[C@@H]1OCCCC[C@H](C)Oc2ccc(NS(C)(=O)=O)cc2C(=O)N([C@H](C)CO)C[C@@H]1C	-1.0
Cc1noc(C)c1NC(=O)Nc1ccc2c(c1)C(=O)N([C@@H](C)CO)C[C@H](C)[C@@H](CN(C)Cc1ccncc1)O2	-0.7
C[C@@H]1CCCCO[C@@H](CN(C)S(=O)(=O)c2ccc(F)cc2)[C@H](C)CN([C@@H](C)CO)C(=O)c2cc(N(C)C)ccc2O1	1.5
CC(=O)N1Cc2ccccc2C[C@]2(N=C(c3ccc(OCCCO)cc3)O[C@@H]2c2ccccc2)C1=O	0.0
C[C@@H]1CCCCO[C@H](CN(C)Cc2ccncc2)[C@H](C)CN([C@H](C)CO)C(=O)c2cc(NC(=O)Cc3ccccc3)ccc2O1	0.1
C[C@@H]1CCCCO[C@H](CN(C)S(=O)(=O)c2ccccc2)[C@@H](C)CN([C@H](C)CO)C(=O)c2cc(NC(=O)Nc3ccc4c(c3)OCO4)ccc2O1	-0.7
C[C@@H]1CN([C@@H](C)CO)C(=O)CCCn2cc(nn2)CO[C@@H]1CN(C)C(=O)Nc1cccc(F)c1	-0.1
C[C@H]1CN([C@@H](C)CO)C(=O)Cc2cc(NS(C)(=O)=O)ccc2O[C@@H]1CN(C)S(=O)(=O)c1ccc(Cl)cc1	0.8
C[C@@H]1CN([C@@H](C)CO)C(=O)c2cc(NC(=O)Nc3ccc(F)cc3)ccc2O[C@H]1CN(C)CC1CCCCC1	0.2
C[C@H](CO)N1C[C@H](C)[C@H](CN(C)Cc2ccc(C(F)(F)F)cc2)Oc2c(NC(=O)NC3CCCCC3)cccc2C1=O	1.4
COc1ccc(S(=O)(=O)Nc2ccc3c(c2)C(=O)N([C@@H](C)CO)C[C@@H](C)[C@@H](CN(C)C(=O)Cc2ccccc2)OCCCC[C@H](C)O3)cc1	0.9
CNC[C@@H]1OCCCC[C@H](C)Oc2ccc(NC(=O)CCC(F)(F)F)cc2C(=O)N([C@@H](C)CO)C[C@@H]1C	-1.0
CC(C)(C)OC(=O)NC/C=N/NC(=O)CCCCCCC(=O)O	0.6
COC(=O)CCCCCCC(=O)N/N=C/c1cccnc1Cl	0.2
Cc1noc(C)c1S(=O)(=O)Nc1ccc2c(c1)C(=O)N([C@H](C)CO)C[C@H](C)[C@@H](CN(C)C(=O)Nc1cccc3ccccc13)O2	-1.6

# Further compounds follow:
SMILES	A1 apoptosis 2
C[C@H]1CN([C@@H](C)CO)C(=O)c2cccc(NC(=O)C3CCOCC3)c2O[C@H]1CN(C)Cc1ccc(C(F)(F)F)cc1	0.3
C[C@H]1CN([C@@H](C)CO)C(=O)Cc2cc(NC(=O)CCC(F)(F)F)ccc2O[C@H]1CN(C)C(=O)Nc1ccccc1	-0.5
C[C@H]1CN([C@@H](C)CO)C(=O)c2cccc(NC(=O)c3nc4ccccc4s3)c2O[C@H]1CN(C)S(=O)(=O)c1cccs1	-0.4
C[C@H]1CN([C@@H](C)CO)C(=O)c2cc(NC(=O)Nc3ccc(C(F)(F)F)cc3)ccc2O[C@H]1CN(C)C	-0.3
C[C@@H]1CN([C@H](C)CO)C(=O)c2cc(N(C)C)ccc2O[C@@H](C)CCCCO[C@@H]1CN(C)S(C)(=O)=O	-0.7
C[C@H]1CCCCO[C@H](CN(C)S(=O)(=O)c2cccs2)[C@@H](C)CN([C@@H](C)CO)C(=O)c2cc(NS(C)(=O)=O)ccc2O1	1.0
C[C@H]1CCCCO[C@@H](CN(C)C(=O)Nc2ccc(C(F)(F)F)cc2)[C@@H](C)CN([C@@H](C)CO)C(=O)c2cc(N(C)C)ccc2O1	-0.1
CC(C)NC(=O)N(C)C[C@@H]1Oc2ccc(NC(=O)CCC(F)(F)F)cc2C(=O)N([C@@H](C)CO)C[C@H]1C	-0.4
C[C@@H]1CN([C@@H](C)CO)C(=O)c2cc(NC(=O)CCC(F)(F)F)ccc2O[C@@H](C)CCCCO[C@H]1CN(C)Cc1ccc(Cl)c(Cl)c1	0.5
C[C@H]1CN([C@@H](C)CO)C(=O)Cc2cc(NC(=O)Cc3ccccc3)ccc2O[C@H]1CN(C)CC1CC1	-0.8
C[C@@H]1CN([C@H](C)CO)C(=O)c2cc(NC(=O)Nc3ccc(C(F)(F)F)cc3)ccc2O[C@@H](C)CCCCO[C@H]1CN(C)Cc1ccc(C(F)(F)F)cc1	0.6
C[C@@H]1CN([C@H](C)CO)C(=O)CCCn2nncc2CO[C@H]1CN(C)C(=O)Nc1ccccc1	-0.1
COc1ccc(NC(=O)Nc2ccc3c(c2)C(=O)N([C@@H](C)CO)C[C@@H](C)[C@H](CN(C)Cc2ccccc2)OCCCC[C@@H](C)O3)cc1	1.3
C[C@H](CO)N1C[C@H](C)[C@H](CN(C)C)Oc2ccc(NC(=O)CCC(F)(F)F)cc2CC1=O	1.0
C[C@H](CO)N1C[C@H](C)[C@@H](CN(C)Cc2ccccc2)Oc2ccc(NS(C)(=O)=O)cc2C1=O	-0.3
COc1ccc(CN(C)C[C@@H]2OCCCC[C@H](C)Oc3ccc(NC(=O)Nc4c(C)noc4C)cc3C(=O)N([C@@H](C)CO)C[C@@H]2C)cc1	0.7
C[C@H]1CN([C@@H](C)CO)C(=O)c2cccc(NC(=O)Nc3ccc(F)cc3)c2O[C@@H]1CN(C)C(=O)Nc1cccc2ccccc12	-0.7
C[C@@H]1CN([C@H](C)CO)C(=O)Cc2cc(N(C)C)ccc2O[C@H]1CN(C)S(=O)(=O)c1ccccc1	-0.1
Cc1noc(C)c1S(=O)(=O)N(C)C[C@@H]1Oc2ccc(NS(=O)(=O)c3cccs3)cc2C(=O)N([C@@H](C)CO)C[C@@H]1C	1.6
COc1ccc(CN(C)C[C@H]2OCCCC[C@@H](C)Oc3ccc(NS(=O)(=O)c4ccc(Cl)cc4)cc3C(=O)N([C@@H](C)CO)C[C@H]2C)cc1	0.3

# Next results
SMILES	A1 apoptosis 2
C[C@@H]1CN([C@@H](C)CO)C(=O)Cc2cc(NC(=O)C3CC3)ccc2O[C@@H]1CN(C)S(=O)(=O)c1cn(C)cn1	0.1
C[C@@H]1CN([C@H](C)CO)C(=O)c2cc(NC(=O)Cn3cnnn3)ccc2O[C@@H]1CN(C)Cc1ccc2c(c1)OCO2	-0.7
C[C@@H]1CN([C@@H](C)CO)C(=O)c2cc(NS(=O)(=O)c3cccs3)ccc2O[C@H]1CN(C)Cc1ccc(Oc2ccccc2)cc1	0.5
Cc1cccc(CN(C)C[C@@H]2OCc3cnnn3CCCC(=O)N([C@@H](C)CO)C[C@H]2C)c1	-1.2
C[C@@H]1CCCCO[C@@H](CN(C)S(=O)(=O)c2ccccc2)[C@@H](C)CN([C@@H](C)CO)C(=O)c2cc(NS(C)(=O)=O)ccc2O1	1.3
Cc1noc(C)c1NC(=O)Nc1ccc2c(c1)CC(=O)N([C@H](C)CO)C[C@@H](C)[C@H](CN(C)C(=O)Nc1ccc(F)cc1)O2	1.4
C[C@@H]1CN([C@H](C)CO)C(=O)Cc2cc(NC(=O)CCCCCC(=O)Nc3ccccc3N)ccc2O[C@@H]1CN(C)S(=O)(=O)c1ccccc1	-0.8
Cc1noc(C)c1S(=O)(=O)Nc1ccc2c(c1)C(=O)N([C@H](C)CO)C[C@H](C)[C@H](CN(C)C(=O)Nc1ccc3c(c1)OCO3)OCCCC[C@H](C)O2	0.2
COc1ccc(S(=O)(=O)Nc2ccc3c(c2)C(=O)N([C@@H](C)CO)C[C@@H](C)[C@@H](CN(C)CC2CC2)O3)cc1	u
COc1ccc(CN(C)C[C@H]2Oc3c(NC(=O)C4CCOCC4)cccc3C(=O)N([C@@H](C)CO)C[C@@H]2C)cc1	-0.5
CC(C)NC(=O)N(C)C[C@@H]1Oc2ccc(NC(=O)Nc3ccc(F)cc3)cc2C(=O)N([C@H](C)CO)C[C@H]1C	0.8
C[C@H](CO)N1C[C@H](C)[C@H](CN(C)S(C)(=O)=O)Oc2ccc(NS(=O)(=O)c3ccccc3)cc2C1=O	1.2

# These rows are one share of the data, so the mix of outcomes need not match the whole.
